# Assay outcomes: PubChem, Johns Hopkins Ion Channel Center
# KCNQ2 inh – KCNQ2 channel blockers in CHO-K1 cells – cell-based, FluxOR thallium flux, B-score, primary screen (AID 2156); B-score at 10 µM; actives 1.1% (n = 310,000); 20 min; stronger effect = lower value; only compounds with negative scores are shown here; some inactives read as strong as hits; O88943;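 active = fluorescence ratio B-score at most minus 3 library SDs, with starting brightness B-score within 2 library SDs, cut at about -5.5 in these data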
# Target sequence (O88943 whole entry, looked up): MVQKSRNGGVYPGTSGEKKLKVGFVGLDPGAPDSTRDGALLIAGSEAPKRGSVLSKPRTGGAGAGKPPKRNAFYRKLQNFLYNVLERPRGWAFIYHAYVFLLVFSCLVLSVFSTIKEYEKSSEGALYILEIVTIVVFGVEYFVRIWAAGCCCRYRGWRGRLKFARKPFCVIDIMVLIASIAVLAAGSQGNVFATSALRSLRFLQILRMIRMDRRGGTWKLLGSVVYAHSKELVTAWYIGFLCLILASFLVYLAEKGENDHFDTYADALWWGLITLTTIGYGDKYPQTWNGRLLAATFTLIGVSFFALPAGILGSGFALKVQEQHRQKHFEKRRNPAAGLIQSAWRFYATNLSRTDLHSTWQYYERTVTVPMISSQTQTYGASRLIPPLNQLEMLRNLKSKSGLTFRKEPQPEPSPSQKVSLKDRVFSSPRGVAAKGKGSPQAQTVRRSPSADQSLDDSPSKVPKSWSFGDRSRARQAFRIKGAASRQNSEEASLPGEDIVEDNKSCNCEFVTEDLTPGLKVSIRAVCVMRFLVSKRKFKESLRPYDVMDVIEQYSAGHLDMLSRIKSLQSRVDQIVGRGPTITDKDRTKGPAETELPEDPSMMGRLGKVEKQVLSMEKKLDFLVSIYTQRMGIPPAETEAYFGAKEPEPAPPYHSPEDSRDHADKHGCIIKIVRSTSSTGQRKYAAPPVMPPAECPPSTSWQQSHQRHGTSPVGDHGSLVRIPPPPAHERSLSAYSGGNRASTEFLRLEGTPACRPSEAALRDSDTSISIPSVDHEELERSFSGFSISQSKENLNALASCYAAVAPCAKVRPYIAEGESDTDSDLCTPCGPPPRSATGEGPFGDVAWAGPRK
# KCNQ2 inh baseline – further read-out of KCNQ2 inh, marked with its call; B-score; measured here: initial fluorescence intensity artifact check;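 brightness before thallium and not channel activity; 0 = typical well and far values either way flag optical interference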
# * marks the source's active call; other numbers are inactive results; i = inactive. An excerpt, so the mix of outcomes need not match the whole.
entry	structure	KCNQ2 inh	KCNQ2 inh baseline
1	Cc1cc(C(=O)N/N=C2\CC(=O)CC(C)(C)C2)c(C)n1-c1ccccc1	i	0.41
2	Cc1ccc(C2Nc3ccccc3C(=O)N2Cc2ccco2)cc1 (stereo unspecified)	i	-0.98
3	O=C(O)c1c(-n2cccc2)sc2c1CCCC2	i	0.57
4	CC(C)[C@H](NC(=O)c1ccccc1)C(=O)OCc1nc2scc(-c3ccccc3)c2c(=O)[nH]1	i	0.03
5	O=C(c1ccccc1)c1cccc(NC(=O)c2ccco2)c1	i	-2.2
6	COc1ccccc1Nc1nc(N)nc(CSc2nncn2C)n1	i	1.2
7	CCCc1ccc(Oc2cc(NN3CCCCC3)c([N+](=O)[O-])cc2[N+](=O)[O-])cc1	i	-0.42
8	CC(C)(C)C(=O)Cn1c(=O)n(-c2ccc(F)cc2F)c(=O)c2sccc21	i	0.66
9	Nc1ccccc1Nc1cc(-c2ccccc2)nn1-c1cccc(Cl)c1	i	0.59
10	CCCC(=O)C1=C(O)C(C(=O)OC)C(C)(C)CC1=Nc1ccc(N)cc1 (stereo unspecified)	i	-1
11	Cc1ccc(NC(=O)CS(=O)CC(=O)N2CCN(C3CCCC3)CC2)cc1 (stereo unspecified)	i	1.5
12	FC(F)(F)c1cccc(CNC2c3ccccc3-c3ccccc32)c1	i	0.19
13	O=C(NCc1ccc(F)cc1)c1c(O)c2cccc3c2n(c1=O)CCC3	i	0.93
14	Clc1ccc(COn2c(-c3ccc(Cl)cc3)nc3ccccc32)cc1	i	-1
15	Fc1ccc(Oc2nnnn2-c2ccccc2)cc1	i	2.1
16	OC(CNCc1ccncc1)c1ccccc1 (stereo unspecified)	i	-0.19
17	CCOC(=O)c1sc2nc(CC(=O)OC)nc(N3CCN(c4ccccn4)CC3)c2c1C	i	0.41
18	CCC(=O)Nc1cccc(C(=O)/C=C/c2ccc(F)cc2)c1	i	0.09
19	O=C(NC1CCCCC1)C1CCN(c2nccs2)CC1	i	-1.1
20	CC1CCCC(C)N1CCCNC(=O)Cn1ncc2c([nH]c3ccccc32)c1=O (stereo unspecified)	i	0.02
21	Cc1nc(NC(=O)Nc2ccc(Cl)cc2)sc1C	i	1.6
22	Cc1ccc(C2=NN(C(=O)COc3ncnc4ccccc34)C(c3ccco3)C2)cc1 (stereo unspecified)	i	0.27
23	COc1ccc2nc(NC3=NC(c4ccccc4)CC(=O)N3)nc(C)c2c1 (stereo unspecified)	i	0.37
24	CCOC(=O)c1c(NC(=O)c2nn(CC)cc2Br)c(C#N)cn1-c1ccccc1	i	0.05
25	Cc1ccnn1CC(=O)N/N=C/c1cn[nH]c1-c1ccc(F)cc1	i	-1
26	CC1(C)C2CCC1(C)C(OC(=O)C[n+]1ccccc1)C2 (stereo unspecified)	i	-2.8
27	O=C(Nc1ccccc1Cl)c1cccc(COc2cc(Cl)ccc2Cl)c1	i	0.53
28	CCN=C1SC(CC(=O)NC(C)C)C(=O)N1CC (stereo unspecified)	i	2.1
29	CC(C)OCCCNC(=O)COc1ccc2oc3c(c2c1)CCCC3	i	-0.87
30	CCOc1ccc(S(=O)(=O)N2CCCC(C(=O)NCc3cccnc3)C2)cc1 (stereo unspecified)	i	-1.3
31	C/C(=N\NC(=O)c1csc(C)c1C)c1ccc(C)s1	i	3.2
32	COC(=O)c1cccc(NC(=O)CSc2nnnn2C)c1	i	0.71

# In another format: four of the compounds above
32	COC(=O)c1cccc(NC(=O)CSc2nnnn2C)c1
  KCNQ2 inh: i | KCNQ2 inh baseline: 0.71
25	Cc1ccnn1CC(=O)N/N=C/c1cn[nH]c1-c1ccc(F)cc1
  KCNQ2 inh: i | KCNQ2 inh baseline: -1
27	O=C(Nc1ccccc1Cl)c1cccc(COc2cc(Cl)ccc2Cl)c1
  KCNQ2 inh: i | KCNQ2 inh baseline: 0.53
26	CC1(C)C2CCC1(C)C(OC(=O)C[n+]1ccccc1)C2 (stereo unspecified)
  KCNQ2 inh: i | KCNQ2 inh baseline: -2.8

# Additional records
entry	structure	KCNQ2 inh	KCNQ2 inh baseline
33	Nc1ccc(-c2nc3ccc(N)cc3[nH]2)cc1	i	-0.01
34	CC(=O)Nc1cccc(NC(=O)CSc2ncc(C(=O)Nc3ccc(F)cc3)c(=O)n2C)c1	i	0.26
35	CCSc1nnc(NC(=O)c2ccco2)s1	i	-0.05
36	Cc1cc(C)c2c(CC(=O)NCCc3ccccc3)coc2c1	i	0.61
37	CS(=O)(=O)N1CCc2cc(-c3csc(NC(=O)Cc4ccccc4)n3)ccc21	i	-0.02
38	COCCn1c(SCC(=O)N2CCCc3ccccc32)nc2ccccc2c1=O	-6.7*	-0.21*
39	CC1Cc2ccccc2N1C(=O)c1cc2cccnc2n(C)c1=O (stereo unspecified)	i	0.84
40	Cc1ccc(S(=O)(=O)N2CCCC(C(=O)NCCc3ccc(S(N)(=O)=O)cc3)C2)cc1 (stereo unspecified)	i	-1.7
41	Brc1cccc(OCCSc2ncccn2)c1	i	0.83
42	O=C(Nc1cccc(-c2nc3ncccc3o2)c1)c1sc2ccccc2c1Cl	i	-1.2
43	COc1ccc(-c2csc(Nc3ccc(O)cc3)n2)cc1	i	0.2
44	CSc1nc2c(c(=O)[nH]c(=O)n2C)n1C/C=C(\C)Cl	i	-1.2
45	CC(=O)N1CC(C)Sc2ccc(S(=O)(=O)NCc3ccccc3Cl)cc21 (stereo unspecified)	i	1.5
46	COc1ccc(/C(C)=N/NC(=O)c2cc(-c3cccnc3)nc3ccccc23)cc1	i	-0.32
47	Cc1ccc(NS(=O)(=O)c2cc(NC(=O)c3cc(=O)[nH]c(=O)[nH]3)ccc2Cl)c(C)c1	i	0.01
48	CCCC1=Nc2cc(C(=O)NCCCN3CCN(C)CC3)ccc2Sc2ccccc21	i	-0.28
49	CCN(CC)C(=O)CSc1nc(-c2ccccc2)ccc1C#N	i	-1.8
50	CNC(=O)c1c(Cl)cnn1-c1ccccc1	i	-0.17
51	Cc1ccsc1CN1CCC(C(=O)NCc2ccccc2Cl)CC1	i	-0.46
52	CCOCCCNC(=O)C(NC(=O)CNC(C)=O)c1ccc(Cl)cc1 (stereo unspecified)	i	0.76
53	CCN(CC)c1nc(N)c2c(N)nc(OC)cc2c1C#N	i	0.78
54	Cc1cccc2c3nc4ccccc4nc3n(CCCN3C(=O)c4ccccc4C3=O)c12	i	0.7
55	CCN=C1SC(CC(=O)NCCc2ccc(OC)c(OC)c2)C(=O)N1CC (stereo unspecified)	i	1.7
56	CCCC(=O)OCCn1c(Br)nc2c1c(=O)[nH]c(=O)n2C	i	-2.4
57	Cc1cc(C)n(CC(O)COc2ccccc2C)n1 (stereo unspecified)	i	-0.66
58	Cc1nc(N)sc1-c1csc(Nc2cccc(C(=O)O)c2)n1	i	0.99
59	COC(=O)CC1=NN(c2ccc(OC)cc2)C(=O)/C1=C\c1ccc(Cl)cc1	i	1.8
60	COc1ccc(-n2nnnc2SCC(=O)Nc2ccccc2N2CCOCC2)cc1OC	i	-0.17
61	Cc1cc(C)c[n+](CC(=O)c2c(C)cc(C)c([N+](=O)[O-])c2C)c1	i	0.04
62	CCOc1cc(/C=N/N=C/c2ccc(O)c(OCC)c2)ccc1O	i	0.01
63	O=C(NCCN1Cc2ccccc2C1=O)c1cccs1	i	1.5
64	O=C(c1ccco1)N1CCN(S(=O)(=O)c2ccc3c(c2)OCCO3)CC1	i	0.19
65	CCOC(=O)C1=C(Cc2ccc(Cl)cc2)C(=O)c2ccccc2C1=O	i	2
66	CCC(=O)Nc1ccc(C(=O)N/N=C/c2cccnc2)cc1	i	-1.2
67	O=C(COC(=O)c1cc(=O)c2ccccc2o1)Nc1ccc2ccccc2c1	i	-0.07
68	O=C(CC1Sc2ncnn2C1=O)Nc1ccc(Cl)cc1 (stereo unspecified)	i	-0.06
69	O=C(CN1CCN(c2ccccc2)CC1)Nc1ccccc1Cl	i	0.11
70	COC(=O)C1(c2ccccc2)NC(c2ccc(O)cc2)C2C(=O)N(c3ccc4c(c3)OCO4)C(=O)C21 (stereo unspecified)	i	-0.01
71	O=C(CCN1C(=O)c2cccnc2C1=O)NC1CCCCCC1	i	-0.38
72	O=C(Nc1ccccc1N1CCCC1)c1ccc([N+](=O)[O-])cc1Cl	i	0.44
73	Cc1ccc(C(=O)n2nc(-n3cccc3)c3c(C)cc(C)nc32)cc1	i	0.03
74	Cc1ccccc1NC(=O)Nc1ccccc1C(=O)NCc1ccccc1	i	0.04
75	O=C1NCCN1Cc1ccccc1F	i	-0.39
76	COc1ccc(NC(=O)CCCc2c[nH]c3ccccc23)cc1OC	i	-1.8
77	CC12CCC(C(=O)Nc3cccnc3)(CC1=O)C2(C)C (stereo unspecified)	i	-1.9
78	OCCn1c(SC2CCCCC2)nc2ccccc21	i	0.7
79	CCC(O)(c1ccc(OC)cc1)C(CN1CCOCC1)c1ccccc1 (stereo unspecified)	i	0.12
80	COc1ccc(N2CCN(c3ccc(N)cc3C#N)CC2)cc1	i	-0.12
81	Cc1cc(N2C(=O)C(O)=C(C(=O)c3ccco3)C2c2ccc(Cl)cc2)no1 (stereo unspecified)	i	-1.4
82	CC(=O)c1cccc(NC(=O)CSCc2ccccc2)c1	i	0.73
83	COc1ccccc1OCC(=O)NNC(=O)c1ccc2c(=O)n3c(nc2c1)CCC3	i	0.99
84	COC(C[C@H](O)[C@@H](C)[C@@H](O)COCc1ccccc1)OC	i	-2
85	COc1ccc(NC(=O)CSc2nncn2C)cc1OC	i	2.1
86	Cc1onc(-c2ccccc2)c1C(=O)Nc1ccc2c(C)cc(=O)oc2c1	i	-1.6
87	O=C(COc1ccccc1)N=C1SC2CS(=O)(=O)CC2N1c1cccc(F)c1 (stereo unspecified)	i	-0.01
88	CCCCCn1c2nc3ccccc3nc2c2c(=O)n(CC(C)C)cnc21	i	-0.28

# More records.
entry	structure	KCNQ2 inh	KCNQ2 inh baseline
89	O=C(NCc1nnc(SC/C=C/c2ccccc2)o1)c1ccco1	i	2.8
90	CC1CCc2sc(C(=O)NCC(C)(C)N3CCOCC3)cc2C1 (stereo unspecified)	i	-1.6
91	COc1cc(C(C(=O)NC2CCCC2)N(Cc2ccccc2)C(=O)c2snc(C(N)=O)c2N)ccc1O (stereo unspecified)	i	0.92
92	COc1ccccc1CNC(=O)COC(=O)c1ccccc1SCC(=O)N1CCCC1	i	1.4
93	Cc1ccc(C)c(NC(=O)CCN2CC(C)OC(C)C2)c1 (stereo unspecified)	i	-0.17
94	O=C(CSCc1ccccc1)N/N=C/c1cc2c(cc1Br)OCO2	i	0.08
95	Cc1ccccc1NC1=C(Cl)C(=O)OC1OC(C)C (stereo unspecified)	i	-0.92
96	Cc1nn2c(-c3ccncc3)ccnc2c1Cl	i	5.6

# Next part; it opens with the two that closed the last part.
entry	structure	KCNQ2 inh	KCNQ2 inh baseline
95	Cc1ccccc1NC1=C(Cl)C(=O)OC1OC(C)C (stereo unspecified)	i	-0.92
96	Cc1nn2c(-c3ccncc3)ccnc2c1Cl	i	5.6
97	O=C(CC1Oc2ccccc2NC1=O)NCCCN1CCCC1=O (stereo unspecified)	i	1.8
98	OCCCCNCc1ccc(OCc2ccc(Cl)cc2Cl)cc1	i	0.02
99	Cc1csc2ncnc(N3CCN(S(=O)(=O)c4cccc(C(F)(F)F)c4)CC3)c12	i	-0.16
100	Cc1ccccc1OCCN1C(=O)NC2(CCc3ccccc32)C1=O (stereo unspecified)	i	-2.2
101	CCOc1cccc2sc(N3CCN(C(=O)c4ccc5ncsc5c4)CC3)nc12	i	1.2
102	Cc1ccc(C(=O)CN2C(=O)NC3(CCc4ccccc43)C2=O)c(C)c1 (stereo unspecified)	i	-0.15
103	Cc1ccc(Nc2nnc(SCC(=O)Nc3cc(C(=O)O)ccc3C)s2)c(C)c1	i	0.02
104	Cc1cccc(C(=O)N[C@H](C(=O)Nc2nccs2)C(C)C)c1	i	0.46
105	CN1CCN(c2c([N+](=O)[O-])cnc3ccccc23)CC1	i	0.42
106	O=C(Nc1ccc2c(c1)CCCN2C(=O)c1ccco1)c1cc([N+](=O)[O-])ccc1Cl	i	-2.1
107	O=C(Nc1ccccc1N1CCOCC1)c1cccnc1Cl	i	-0.31
108	CC(C)(CO)Nc1nc(Nc2ccccc2)nc(Nc2ccccc2)n1	i	2.3
109	COc1cc2c(cc1OC)C(C(=O)Nc1ccc3c(c1)OCCO3)C1c3ccccc3CCN1C2=O (stereo unspecified)	i	-2.5
110	O=C(CSc1nnc(NC(=O)c2ccccc2F)s1)NCc1ccc(F)cc1	i	0.36
111	Cc1ccc(NC(=S)N(CCCN2CCCC2)Cc2cccn2Cc2ccc(Cl)cc2)cc1	i	3.4
112	COCCC(=O)N1CCC(Oc2ccc(C(=O)N3CCCCC3CCO)cc2)CC1 (stereo unspecified)	i	0.14
113	CC1CCN(S(=O)(=O)c2ccc3nc(-c4ccccn4)cc(C(=O)NCCN(C)Cc4ccccc4)c3c2)CC1	i	-1.1
114	Cc1cc2c(cc1S(=O)(=O)N(C)C1CCCCC1)OCC(=O)N2	i	0.16
115	CCC(=O)Nc1nc2c(c(=O)[nH]1)CCCC2	i	-1.2
116	Cc1cccc(NC(=O)c2ccc3c(c2)C(=O)N(c2ccccc2C)C3=O)n1	i	0.37
117	CCCCSCCCNC(=O)c1ccc(CS(=O)(=O)c2ccccc2OC)o1	i	-0.64
118	CCC(C(=O)OCC(=O)NC(=O)c1ccccc1)c1ccccc1 (stereo unspecified)	i	-1.6
119	Cc1ccc(C(=O)COC(=O)c2ccco2)cc1C	i	1.6
120	Cc1cc(C(=O)Nc2c(F)cc(F)cc2Br)n(-c2ccccc2)n1	i	-1.7

# 2 compounds drawn at random from those above, as already listed:
entry	structure	KCNQ2 inh	KCNQ2 inh baseline
119	Cc1ccc(C(=O)COC(=O)c2ccco2)cc1C	i	1.6
118	CCC(C(=O)OCC(=O)NC(=O)c1ccccc1)c1ccccc1 (stereo unspecified)	i	-1.6
